OX1R antag-1 – blocks the human orexin 1 receptor; O43613; CHO/OX1R cells, Fluo-8 calcium fluorescence, orexin A; inhibition, % at 5 µM; hit rate 0.43% among 330,000; AID 434989;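 active = inhibition above its plate's threshold, mean inhibition of all tested compounds on the plate plus 3 SD, cut at about 37% in these data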;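 also: 0% = orexin A challenge wells and 100% = SB-334867-A antagonist wells; not every result past the cut was called active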
Target sequence (O43613 whole entry, looked up): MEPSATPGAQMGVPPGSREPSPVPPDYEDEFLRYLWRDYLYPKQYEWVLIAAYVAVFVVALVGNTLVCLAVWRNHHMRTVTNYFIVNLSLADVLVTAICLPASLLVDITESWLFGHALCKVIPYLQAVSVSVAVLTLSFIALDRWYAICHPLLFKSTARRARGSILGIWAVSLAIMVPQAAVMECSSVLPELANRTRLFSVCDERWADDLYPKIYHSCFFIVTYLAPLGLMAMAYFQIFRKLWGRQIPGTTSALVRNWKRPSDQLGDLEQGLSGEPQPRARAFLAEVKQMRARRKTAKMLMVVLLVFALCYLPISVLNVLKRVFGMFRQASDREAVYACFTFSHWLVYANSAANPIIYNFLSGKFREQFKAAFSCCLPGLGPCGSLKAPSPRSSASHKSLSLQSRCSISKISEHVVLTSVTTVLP
OX1R antag-2 – OX1R (human) antagonism. OX1R-expressing cells, FRET antagonist read-out. inhibition, % at 6.6 µM. AID 485270. O43613. hit rate 1.8% among 330,000; in the data active = inhibition mostly above about 38%, no sharp cut-off; inactive = mostly below about 40%;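 also: 0% = agonist challenge alone and 100% = reference antagonist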
An asterisk follows results filed as active.

Start of the data: the first 19 entries, ahead of the listing:
OX1R antag-2 | OX1R antag-1 | Molecule
9.6 | -17.4 | CC(C)OC(=O)c1cccc(C(=O)OCc2ccco2)n1
11.2 | -11.1 | O=C(c1cc([N+](=O)[O-])ccc1N1CCOCC1)N1CCCCC1
7.8 | 2.1 | c1ccc(-c2noc(-c3ccno3)n2)nc1
61.6 | 4.1 | CCc1nc(SCC(=O)Nc2nccs2)c2oc3ccccc3c2n1
33.4 | -2.4 | CC1=NN(c2ccccc2)C(=O)C1C(=O)c1ccc([N+](=O)[O-])cc1 (stereo not given)
-0.8 | 0.2 | O=C(Cc1cc(=O)[nH]c(=O)[nH]1)NCc1ccc(Cl)cc1
11.7 | -6.8 | COc1cc(SC)ccc1C(=O)N(Cc1ccccc1)c1ccccn1
14.0 | 6.4 | CCOC(=O)c1[nH]c2cc(OC)c(OC)cc2c1N
6.0 | -8.4 | O=C(/C=C/c1cccs1)N1CCN(c2ccccc2F)CC1
29.1 | -18.4 | CCCCCN(C(=O)NC(=O)Nc1ccc(C)cc1)S(=O)(=O)c1ccccc1
-8.0 | -13.7 | O=C(NC1CCCCCC1)C1CCC(CNS(=O)(=O)c2ccc(Br)s2)CC1 (stereo not given)
16.7 | -1.7 | Cn1ncc(Br)c1C(=O)Nc1ccc(Br)cn1
41.8 | -22.3 | Cc1ccc(C(C(=O)NCc2ccco2)N(C(=O)Cn2nnc3ccccc32)c2ccccc2)o1 (stereo not given)
19.5 | -16.9 | Cc1ccc(NC(=O)CSc2ccc(-c3cccnc3)nn2)cc1Cl
6.6 | -36.6 | COc1ccc(-c2nnc(SC(C)C(=O)Nc3cccc(Cl)c3)o2)cc1 (stereo not given)
2.9 | 2.6 | Cc1cccc(C(=O)NCC(=O)OCC(=O)N2CCCCC2)c1
-4.2 | -32.6 | COc1ccc(C(=O)Nc2cc3c4c(c2)C(C)C(=O)N4CCC3)c(OC)c1 (stereo not given)
0.8 | -44.9 | CC[C@@]12C(=O)N(c3cccc(C)c3)C(=O)N1[C@H](c1ccc(Br)cc1)[C@@H]1C(=O)N(C(C)(C)C)C(=O)[C@@H]12
14.5 | 4.3 | CC(=O)N(CCCN(C)C)Cc1ccccn1

Main list, repeating the preview:
OX1R antag-2 | OX1R antag-1 | Molecule
9.6 | -17.4 | CC(C)OC(=O)c1cccc(C(=O)OCc2ccco2)n1
11.2 | -11.1 | O=C(c1cc([N+](=O)[O-])ccc1N1CCOCC1)N1CCCCC1
7.8 | 2.1 | c1ccc(-c2noc(-c3ccno3)n2)nc1
61.6 | 4.1 | CCc1nc(SCC(=O)Nc2nccs2)c2oc3ccccc3c2n1
33.4 | -2.4 | CC1=NN(c2ccccc2)C(=O)C1C(=O)c1ccc([N+](=O)[O-])cc1 (stereo not given)
-0.8 | 0.2 | O=C(Cc1cc(=O)[nH]c(=O)[nH]1)NCc1ccc(Cl)cc1
11.7 | -6.8 | COc1cc(SC)ccc1C(=O)N(Cc1ccccc1)c1ccccn1
14.0 | 6.4 | CCOC(=O)c1[nH]c2cc(OC)c(OC)cc2c1N
6.0 | -8.4 | O=C(/C=C/c1cccs1)N1CCN(c2ccccc2F)CC1
29.1 | -18.4 | CCCCCN(C(=O)NC(=O)Nc1ccc(C)cc1)S(=O)(=O)c1ccccc1
-8.0 | -13.7 | O=C(NC1CCCCCC1)C1CCC(CNS(=O)(=O)c2ccc(Br)s2)CC1 (stereo not given)
16.7 | -1.7 | Cn1ncc(Br)c1C(=O)Nc1ccc(Br)cn1
41.8 | -22.3 | Cc1ccc(C(C(=O)NCc2ccco2)N(C(=O)Cn2nnc3ccccc32)c2ccccc2)o1 (stereo not given)
19.5 | -16.9 | Cc1ccc(NC(=O)CSc2ccc(-c3cccnc3)nn2)cc1Cl
6.6 | -36.6 | COc1ccc(-c2nnc(SC(C)C(=O)Nc3cccc(Cl)c3)o2)cc1 (stereo not given)
2.9 | 2.6 | Cc1cccc(C(=O)NCC(=O)OCC(=O)N2CCCCC2)c1
-4.2 | -32.6 | COc1ccc(C(=O)Nc2cc3c4c(c2)C(C)C(=O)N4CCC3)c(OC)c1 (stereo not given)
0.8 | -44.9 | CC[C@@]12C(=O)N(c3cccc(C)c3)C(=O)N1[C@H](c1ccc(Br)cc1)[C@@H]1C(=O)N(C(C)(C)C)C(=O)[C@@H]12
14.5 | 4.3 | CC(=O)N(CCCN(C)C)Cc1ccccn1
17.6 | -23.6 | COc1ccc(/C=C\c2onc(C)c2S(=O)(=O)N2CCC(C(=O)NCc3ccco3)CC2)cc1
4.0 | -6.3 | O=C1c2ccccc2C(=O)N1c1ncn[nH]1
-5.4 | -2.7 | CCCOC(=O)c1c(NC(=O)C2C3C=CC(C3)C2C(=O)O)sc2c1CCC(C)C2 (stereo not given)
42.9 | -31.4 | CC1(OC(=O)CCc2ccccc2)C(=O)C=C2C=C(c3ccc(C#N)cc3)N(CC3CC3)C=C2C1=O (stereo not given)
8.2 | -18.8 | Cc1nn(CC(=O)Nc2ccc(C(=O)N3CCCCC3)cc2)c(=O)c2ccccc12

A different layout for 2 compounds above:
Second line of a record – OX1R antag-2 | OX1R antag-1
> Cc1ccc(NC(=O)CSc2ccc(-c3cccnc3)nn2)cc1Cl
  19.5 | -16.9
> Cc1ccc(C(C(=O)NCc2ccco2)N(C(=O)Cn2nnc3ccccc32)c2ccccc2)o1 (stereo not given)
  41.8 | -22.3

(list continues)
OX1R antag-2 | OX1R antag-1 | Molecule
15.7 | -14.9 | COc1ccc(C2C3=C(CCCC3=O)Nc3nc(C(F)(F)F)nn32)c(OC)c1OC (stereo not given)
16.0 | -36.2 | CC1(C)CC2CC(C)(CN2C(=S)NC(=O)c2ccccc2Cl)C1 (stereo not given)
13.9 | 2.1 | COC(=O)c1sccc1NC(=O)CC1C(=O)NCCN1C(=O)Nc1ccccc1 (stereo not given)
22.5 | -25.9 | COc1ccc(-n2nc(C(=O)NCC(=O)NC3CCCC(C)C3C)c3ccccc3c2=O)cc1 (stereo not given)
9.4 | -39.4 | Cc1ccccc1Cn1c(Cc2ccccc2)nc2ccccc21
22.6 | -26.0 | CCN(CC)S(=O)(=O)c1cc(C(=O)NC2=NCCS2)ccc1Cl
14.1 | -34.2 | CCN(CC)Cc1c(O)ccc2c(=O)c(-c3ccccc3)coc12
9.0 | -18.9 | CCn1c(SCc2cccc(C(F)(F)F)c2)nnc1-c1ccco1
13.8 | -7.5 | O=C(O)C/C(=C\c1cc(Br)cs1)c1nc2ccccc2o1
6.4 | 0.7 | Cc1cc(Oc2ccccc2)nc(SCC(N)=O)n1
12.7 | -9.9 | C1CCN(C2CCN(c3nc4nonc4nc3N3CCSCC3)CC2)C1
18.0 | -0.2 | Cn1c(=O)oc2cc(S(=O)(=O)NCc3ccc(C(=O)O)cc3)ccc21
16.8 | -24.5 | CCOc1ccccc1N1CCN(C(=O)CCNS(=O)(=O)c2ccccc2F)CC1
11.5 | -36.6 | CCOCCCNC(=O)C1CCN(c2cc(C)nc3c(-c4ccc(OC)c(OC)c4)c(C)nn23)CC1
-0.7 | -11.4 | Cc1cccc(NC(=S)NCCO)c1C
33.2 | -0.7 | COc1ccc(S(=O)(=O)Nc2cccc(S(=O)(=O)N3CCCCCC3)c2)cc1
12.8 | 1.4 | O=C(O)c1cc(-c2cccnc2)nn1-c1ccccn1
14.1 | 3.5 | COc1cc2nc(N(C)CCCNC(=O)C3CCCO3)nc(N)c2cc1OC (stereo not given)
6.2 | -2.9 | CCN1C(=O)CC(N2CCC(Nc3ccc(OC)cc3)CC2)C1=O (stereo not given)
17.3 | -28.1 | c1ccc(CCCNCC2COc3ccccc3O2)cc1 (stereo not given)
16.0 | -28.3 | COc1ccc(S(=O)(=O)NCC(=O)N(CC(=O)NCc2ccccc2)Cc2ccco2)cc1
18.9 | -13.6 | COc1ccc(CNC(=O)CNC(c2ccccc2)c2ccccc2)cc1OC
6.8 | -33.1 | Cc1ccc(C(=O)Nc2ccccc2C(=O)Nc2ccccn2)cc1Cl
11.2 | -12.9 | Cc1ccc(C(=O)NNC(=O)CSc2nnc(-c3ccncc3)n2-c2ccc(C)cc2)cc1

Arranged by value in OX1R antag-2 (descending): some entries from above
canonical_smiles	OX1R antag-2
COc1ccc(S(=O)(=O)NCC(=O)N(CC(=O)NCc2ccccc2)Cc2ccco2)cc1	16.0
O=C(O)C/C(=C\c1cc(Br)cs1)c1nc2ccccc2o1	13.8
Cc1cccc(C(=O)NCC(=O)OCC(=O)N2CCCCC2)c1	2.9
O=C(Cc1cc(=O)[nH]c(=O)[nH]1)NCc1ccc(Cl)cc1	-0.8

(further entries)
OX1R antag-2 | OX1R antag-1 | Molecule
31.2 | -20.9 | Cc1ccccc1NC(=O)N(CCc1nc2ccccc2[nH]1)Cc1ccccc1
-1.8 | -17.4 | COc1cccc(/C=N/NC(=O)CCc2ccccc2)c1
1.1 | -15.6 | O=C(Nc1ccc(F)cc1)NC1CCN(Cc2c(F)cccc2Cl)CC1
14.8 | -36.7 | Cc1ccc(CN2CC(C(=O)Nc3ccc4c(C)cc(=O)oc4c3)CC2=O)cc1 (stereo not given)
10.7 | -11.0 | COc1ccc(CCNC(=O)C2CCCN(C(=O)N(C)C)C2)c(OC)c1 (stereo not given)
15.2 | -22.8 | C/C(=N\Nc1nc(C)cc(-c2ccccc2)n1)c1ccc(F)cc1
5.0 | -13.9 | O=C(CN1C(=O)COc2ccccc21)NCCCN1CCc2ccccc2C1
16.1 | -22.3 | COc1ccc(-c2nnn(CC(=O)N(CCCO)C(C(=O)NC3CCCC3)c3ccc(F)cc3)n2)cc1 (stereo not given)
14.2 | -10.5 | CC(C)N(Cc1cc2ccccc2[nH]c1=O)C(=O)c1cccnc1
6.5 | -3.2 | CCC/C(=C1/C(=O)CC(C)(C)C(C(=O)OC)C1=O)N1CCCC1 (stereo not given)
12.7 | -13.1 | Cc1cc(C)nc(N2CCC(C(=O)O)CC2)n1
6.5 | 1.9 | NS(=O)(=O)c1ccc(NC(=O)COC(=O)CSc2n[nH]c(-c3ccccc3)n2)cc1
28.0 | -13.3 | COc1ccc2[nH]c3c(c2c1)CCN1C(=O)N([C@@H](C)C(=O)NCc2ccc(F)cc2)C(=O)[C@]31C
16.2 | -11.4 | COC(=O)CON1C(=O)c2ccccc2C1=O
38.0 | -23.1 | COc1ccc(-n2nc(C(=O)NCC(=O)NCCC3=CCCCC3)c3ccccc3c2=O)cc1
4.5 | -6.4 | O=S(=O)(c1ccc(Br)s1)N1CCNCC1
10.1 | -1.0 | CCCC1(C)SC(NC(C)=O)=NN1C(C)=O (stereo not given)
4.7 | -19.1 | CCOc1ccc(NC(=O)c2ccccc2OC)cc1
12.3 | -14.1 | O=C(CSc1ccccn1)N1CCOCC1
8.8 | -30.2 | C(=N\Nc1nc(-c2ccccc2)cs1)/c1cccnc1
9.2 | 7.0 | Cc1ccc(S(=O)(=O)NNC(=O)c2cccnc2)cc1
4.8 | -32.1 | Cc1ccc(NCc2nnc(SCC(=O)N3CCCc4ccccc43)o2)c(C)c1
-5.7 | -16.5 | CC(=O)N1CCN(CC(C)(C)NS(=O)(=O)c2ccc(C)cc2)CC1
15.5 | -20.9 | Cc1cc(C)n(C(=O)CCCC(=O)n2nc(C)cc2C)n1
26.7 | -19.9 | COc1ccc(C(=O)NCc2ccco2)cc1S(=O)(=O)N1CCOCC1
14.0 | -14.8 | O=C(CCc1ccccc1)Nc1nnc(-c2ccc3c(c2)OCCO3)o1
8.6 | -29.2 | CN1CCN(c2ccc(S(=O)(=O)N3CCCCC3)cc2NC(=O)c2cccc([N+](=O)[O-])c2)CC1
15.0 | -14.9 | Cc1ccc(-c2nnn(CC(=O)N(c3cccc(F)c3)C(C(=O)NC(C)(C)C)c3ccco3)n2)o1 (stereo not given)
18.9 | -5.9 | CCCCn1c(N)c(N(CC(C)C)C(=O)COC(=O)Cc2cccc(OC)c2)c(=O)[nH]c1=O
10.2 | -9.4 | COc1ccc(NC(=O)c2ccco2)cn1
6.9 | -5.7 | Cc1nc(-c2cc(C#N)c(=O)[nH]c2C)cs1
52.1 | -14.3 | CN(C)CCN(C(=O)c1ccc2c(c1)OCCO2)c1nc2cc3c(cc2s1)OCO3
2.5 | -1.0 | CCOC(=O)N1CCN(C(=O)CSCc2nc(-c3ccccc3C)oc2C)CC1
13.3 | -27.7 | CC1CCCN(C(C(=O)Nc2ccc3c(c2)OCCO3)c2ccccc2)C1 (stereo not given)
23.1 | 11.8 | O=C(CN1C(=O)CSC1=O)Nc1ccccc1F
15.1 | -9.7 | COc1ccccc1/C=C1\SC(=S)N(CCC(=O)NCCc2ccc(O)cc2)C1=O
13.3 | -20.9 | Cc1nc2ccccc2nc1N1CCCC1
-0.4 | -13.8 | COc1ccc(CN2CCN(C(=O)c3ccc(CNS(=O)(=O)c4ccc(C)cc4)cc3)CC2)c(OC)c1OC
1.6 | -29.3 | CCCOc1ccc(N2C(=O)CC(N3CCCC(C(=O)N4CCCC4)C3)C2=O)cc1 (stereo not given)
9.9 | 0.1 | Cc1noc(C)c1CSCC(=O)Nc1cc(S(=O)(=O)N2CCOCC2)ccc1OCC(F)(F)F
6.6 | -14.5 | Cc1ccccc1OCCC(=O)OCC(=O)NC(C)c1ccccc1 (stereo not given)
9.8 | -4.7 | COc1cccc(CN2CCNC(=O)C2CC(=O)NCCn2ccc3ccccc32)c1OC (stereo not given)
42.1 | 3.6 | O=C(Nc1ccc2c(c1)OCO2)c1ccc([N+](=O)[O-])cc1[N+](=O)[O-]
9.2 | -37.8 | COc1cc2c(cc1OC)C(C)N(C(=O)c1cc3ccccc3o1)CC2 (stereo not given)
-4.0 | -21.2 | CCc1ccc(NCCC(=O)c2ccc(Br)cc2)cc1
15.0 | -30.5 | CCc1ccc(NC(=O)CCNC(=O)Cn2cnc3ccccc3c2=O)cc1
33.2 | -28.5 | O=C(NCCN1CCc2ccccc2C1)Nc1ccc([N+](=O)[O-])cc1
8.9 | 0.0 | O=C(O)CN1CCN(Cc2ccc(F)cc2Cl)C1=O
11.1 | -18.5 | CCOC(=O)C1(Cc2ccc(OC)cc2)CCN(C(=O)CCn2cccn2)CC1
14.7 | -31.3 | CCc1ccccc1N(CC(=O)NCc1ccccc1)C(=O)CCC(=O)Nc1ccccn1

Source: PubChem BioAssay (The Scripps Research Institute Molecular Screening Center)

An excerpt; most or all hits stand in other tables.
